Bioassay records: PubChem BioAssay, several laboratories
Vif TR-FRET = inhibitors of Vif binding to APOBEC3G peptide, primary screen, biochemical, TR-FRET, GST-Vif 1-94, biotin-A3G peptide, dose response retest (AID 1117319); 0.57% of 260,000 active; one-dose inhibition, %; IC50 in µM for titrated hits; TR-FRET GST-Vif / biotin-A3G peptide binding; higher % means a stronger effect; test concentration not given here; strong numbers were not always called active;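 active = above the screen mean plus three standard deviations and confirmed in dose response; inconclusive = results disagree or hit not tested in dose response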;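 also: Vif residues 1-94 fused to GST binding biotinylated APOBEC3G peptide 110-148; 0% = full assay without inhibitor and 100% = GST in place of GST-Vif; retest series ran down from 100 µM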
HNF4A DNA FP = change in binding of human HNF4 alpha to DNA; P41235; HNF4a-FITC DNA binding, fluorescence polarization, 1 h; activity change, % at 10 µM; 0.3% of 360,000 active; AID 1224865; in the data active = activity change above about 30%, passing the limit was not always enough;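 also: controls were the assay level and a saturating level of protein; the project sought stronger binding though the title names inhibitors; some compounds called inactive have numbers as strong as hits; positive values seem to mean higher polarization but the record does not say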
Target sequence (P41235 whole entry, looked up): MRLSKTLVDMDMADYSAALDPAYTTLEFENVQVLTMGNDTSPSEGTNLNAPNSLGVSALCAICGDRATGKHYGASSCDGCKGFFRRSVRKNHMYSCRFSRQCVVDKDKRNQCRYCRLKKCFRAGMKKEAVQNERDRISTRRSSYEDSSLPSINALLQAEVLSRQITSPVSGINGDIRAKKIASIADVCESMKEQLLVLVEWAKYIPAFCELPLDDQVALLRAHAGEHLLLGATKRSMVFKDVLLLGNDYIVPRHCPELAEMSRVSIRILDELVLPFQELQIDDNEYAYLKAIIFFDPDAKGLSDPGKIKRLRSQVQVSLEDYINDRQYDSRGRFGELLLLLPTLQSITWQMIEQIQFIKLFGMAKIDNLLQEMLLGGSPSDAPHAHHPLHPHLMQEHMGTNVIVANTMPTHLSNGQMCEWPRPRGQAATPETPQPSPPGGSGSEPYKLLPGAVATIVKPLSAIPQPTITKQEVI
MLL AF4-AF9 inh = inhibitors of human MLL-AF4/AF9 interaction; inhibition, % at 10 µM; P42568; 0.47% of 350,000 active; AlphaScreen, biotin-AF4 peptide binding to FLAG-AF9; AID 651704;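 active = every replicate reaching a set inhibition limit, whatever the replicate mean, cut at about 25% in these data; inconclusive = mean inhibition reaches that limit but some replicates miss it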;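 also: 0% = plate neutral control median and 100% = total signal loss; the record names both 10 and 1 µM as test concentration; the first replicate is given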
Ecoli growth = blocks Escherichia coli growth; 0.21% of 330,000 active; OD600, 23 h; hits give low values; OD600 absorbance (concentration not given with the values); AID 1053175;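 active = OD600 absorbance below the run mean of sample wells minus 3.6 SD, in any replicate, cut at about 0.56 in these data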;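 also: stock transfer was 300 nL into about 60 µL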
Ecoli rRNA inh = selective bacterial rRNA inhibition in E. coli; E. coli WT GFP vs humanized-ribosome RFP mutants, fluorescence, 24 h; hits give low values; DMSO median 0, no signal -100; 1.6% of 350,000 active; GFP signal change (wild-type ribosome), % (test concentration not listed);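 active = significant combined selectivity score with lowered wild-type GFP, culture density cut under 30%, mutant RFP and density less affected; inactive = any of these conditions unmet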; also: one replicate is shown; some compounds called inactive have numbers as strong as hits
FGF22 binding = FGF22 (human) thermal shift binding; recombinant FGF22 thermal shift, SYPRO orange fluorescence; percent of sucrose octasulfate shift, DMSO zero; 1.5% of 340,000 active; Q9HCT0; calls only at 9.99 µM;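 active = melting point raised past a set limit in the mean and every replicate; inconclusive = no clear call; three in four hits are not shown here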
Target sequence (Q9HCT0 whole entry, looked up): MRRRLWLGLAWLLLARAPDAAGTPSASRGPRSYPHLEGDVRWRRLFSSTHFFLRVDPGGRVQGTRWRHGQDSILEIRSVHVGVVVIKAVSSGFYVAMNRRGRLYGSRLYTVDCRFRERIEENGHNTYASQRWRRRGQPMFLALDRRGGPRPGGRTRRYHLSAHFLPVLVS
ALR H2O2 inh = inhibitors of human sulfhydryl oxidase ALR | purified ALR, DTT oxidation, H2O2 HRP-luminol luminescence | AID 485317 | P55789 | inhibition, % (no concentration beside the values) | 3.8% of 290,000 active;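 active = mean and each replicate at 75% or more; inconclusive = only one of the two met; inactive = neither met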;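 also: stock transfer was 7.5 nL into about 7.5 µL; 0% = neutral wells and 100% = wells with inactivated enzyme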
Target sequence (P55789 whole entry, looked up): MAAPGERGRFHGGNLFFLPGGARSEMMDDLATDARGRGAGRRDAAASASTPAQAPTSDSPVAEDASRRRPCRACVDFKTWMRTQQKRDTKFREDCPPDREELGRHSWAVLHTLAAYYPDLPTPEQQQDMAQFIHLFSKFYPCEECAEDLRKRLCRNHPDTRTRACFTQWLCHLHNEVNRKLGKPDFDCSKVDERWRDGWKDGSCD
Ecoli rRNA inh OD600 = further read-out of Ecoli rRNA inh, marked with its call; OD600 change, %; measured here: OD600 growth;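 optical density of the mix in the first replicate; 0 = DMSO median and -100 = no signal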
Ecoli rRNA inh RFP = recorded beside Ecoli rRNA inh, whose call it bears; RFP signal change, %; measured here: RFP humanized mutant strains;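 first replicate; 0 = DMSO median and -100 = no signal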
* marks the source's active call; other numbers are inactive results; i = inactive; ? = inconclusive; · = not tested or not shown.

# | Compound | Vif TR-FRET | HNF4A DNA FP | MLL AF4-AF9 inh | Ecoli growth | Ecoli rRNA inh | Ecoli rRNA inh OD600 | Ecoli rRNA inh RFP | FGF22 binding | ALR H2O2 inh
1 | Cc1cccc(C)c1-n1nnnc1C(c1ccnc2ccccc12)N1CCN(C(=O)OCc2ccccc2)CC1 (centres undefined) | · | -0.3 | 1.2 | · | 21 | 6 | 2.9 | i | ·
2 | CC(=O)Nc1cccc(N2C(=O)CC(N3CCC(C(=O)N4CCCCC4)CC3)C2=O)c1 (centres undefined) | ? | -1.0 | · | 0.67 | · | · | · | · | -28
3 | Cc1cccc(NC(=O)c2ccc(S(=O)(=O)N3CCN(C)CC3)cc2)c1C | · | 2.4 | 3.2 | 0.67 | 2 | 11 | -2.3 | i | -6
4 | CCC(C)N1C(=O)S/C(=C/c2ccc(Sc3nc4ccccc4[nH]3)o2)C1=O (centres undefined) | 67% | 77* | 4.1 | 0.69 | -29 | -27 | 21 | i | ·
5 | COc1ccc(C2CC(=O)C(C=NCCCN3CCOCC3)=C(O)C2)cc1 (centres undefined) | 2% | -0.8 | · | 0.66 | · | · | · | · | -2
6 | O=C(Cn1cnc2cc([N+](=O)[O-])ccc2c1=O)NCCc1ccc(Cl)cc1 | -3% | -1.1 | -0.5 | 0.69 | 0 | 9 | 1.4 | i | 2
7 | CC(C)c1ccc(CNc2ccc3c(c2)ncn3C)cc1 | 7% | 0.9 | 20 | 0.57 | -1 | -11 | 11 | i | 78*
8 | Cc1cc(C)n2nc(SCC(=O)N3CCN(c4ccc(F)cc4)CC3)nc2n1 | · | 0.7 | -1.4 | 0.72 | -1 | 4 | 3.6 | i | 21
9 | COc1ccccc1OCCC(=O)OCC(=O)Nc1ncc(Cl)cc1Cl | -3% | 3.6 | · | 0.73 | · | · | · | · | 1
10 | C[C@@H]1CCCCO[C@@H](CN(C)CC2CCCCC2)[C@@H](C)CN([C@@H](C)CO)C(=O)c2cc(NS(=O)(=O)c3cccs3)ccc2O1 | · | · | 3.4 | · | 4 | -4 | 4.9 | i | ·
11 | O=C(COC(=O)c1ccccc1Cl)Nc1nccs1 | 30% | -2.0 | -1.4 | 0.72 | 16 | 10 | -0.7 | i | ·
12 | Cc1ccc(C(=O)/C=C/c2ccc(F)cc2)o1 | · | 3.2 | · | 0.58 | · | · | · | · | 1
13 | CCCc1cc(-c2[nH]ncc2-c2ccc3c(c2)OCCCO3)c(O)cc1O | 3% | 9.2 | · | 0.69 | · | · | · | · | 68
14 | C[C@@H]1CN([C@@H](C)CO)C(=O)c2cc(C#Cc3ccccn3)cnc2O[C@@H]1CN(C)Cc1cncnc1 | · | · | -3.9 | · | 7 | 15 | -0.1 | i | ·
15 | Cc1cccc2nc(Cn3c(=O)n(CCCC(=O)NCc4ccco4)c(=O)c4ccccc43)cc(=O)n12 | 1% | -0.6 | · | 0.62 | · | · | · | · | -1
16 | COc1ccc2c3c(n(C)c2c1)[C@@H](CO)N(C(=O)CN(C)C)CC31CCN(Cc2nccs2)CC1 | · | · | -0.9 | · | 1 | -6 | 1.3 | i | ·
17 | COCCCNC(=O)c1ccccc1NS(C)(=O)=O | -2% | -2.8 | · | 0.7 | · | · | · | · | -1
18 | CC(C)N1C(=O)CCC1C(=O)NCc1ccc(F)cc1Cl (centres undefined) | 0% | 3.0 | 8.5 | 0.71 | 12 | 15 | -1.2 | i | -1
19 | CC(=O)Nc1ccc(NC(=O)CSc2nc(N)c(NC(=O)c3ccccc3F)c(=O)[nH]2)cc1 | 1% | -4.4 | -1.6 | 0.73 | 5 | 11 | 0.7 | i | -4
20 | CCSc1nc2sc3c(c2c(=O)n1-c1ccc(OC)cc1)CCN(C)C3 | · | 2.4 | -0.2 | 0.63 | -3 | -7 | -4.3 | i | -9
21 | C[C@H](NC(=O)[C@@H]1[C@@H](CO)[C@@H]2Cn3c(cccc3=O)[C@@H]2N1Cc1cccnc1)c1ccccc1 | · | · | 0.2 | · | 4 | 9 | 0.5 | i | ·
22 | CN(C)C(=O)C[C@H]1CC[C@@H]2[C@H](COC[C@@H](O)CN2C(=O)C2CC2)O1 | · | · | -1.2 | · | 4 | -4 | -5.1 | i | ·
23 | Cc1cccc(NS(=O)(=O)c2ccc(C)c(C(=O)NCc3ccccn3)c2)c1 | -10% | -3.9 | 0.8 | 0.7 | -1 | 1 | 0.5 | i | ·
24 | Cn1c2c(c(=O)n(C)c1=O)CN(Cc1ccc3c(c1)OCO3)CN2 | ? | 1.4 | · | 0.74 | · | · | · | · | -1
25 | CC(C)CNC(=O)c1ccc(NC(=O)c2ccccc2[N+](=O)[O-])cc1 | -1% | 2.5 | · | 0.62 | · | · | · | · | 39
26 | O=C(CCN1C(=O)c2ccccc2S1(=O)=O)Nc1ccccc1F | · | -1.2 | -1.7 | 0.67 | 9 | 8 | -0.2 | i | ·
27 | O=C(CN1CCOCC1)N(c1ccccc1)c1ccc2ccccc2c1 | 5% | 1.3 | · | 0.7 | · | · | · | · | -18
28 | CC1CCCN(C/C(O)=C(\C#N)c2nc3ccccc3[nH]2)C1 (centres undefined) | 30% | -3.3 | · | · | · | · | · | · | 19
29 | O=[N+]([O-])c1ccc(-n2nnnc2-c2ccccc2)cc1 | -9% | 2.4 | · | 0.71 | · | · | · | · | -9
30 | Cc1nc2ccccc2c(=O)n1NC(=O)Cc1ccc(Br)cc1 | ? | 4.3 | · | 0.7 | · | · | · | · | 3
31 | O=C(C[C@H]1C[C@@H]2c3cc(NC(=O)C4CCC4)ccc3O[C@@H]2[C@H](CO)O1)NCc1ccc(-c2ccccc2)cc1 | · | · | -1.1 | · | -4 | -10 | 7.6 | i | ·
32 | CCn1c(SCC(=O)NC2CCCCC2)nc2c(c1=O)SCC2 | · | -1.1 | 0.4 | 0.68 | -5 | -9 | -3.9 | i | 1
33 | O=C(Nc1ccc(C(O)c2ccccc2)cc1)[C@@H]1O[C@H](CO)[C@@H](O)[C@H]1O (some centres undefined) | · | -0.6 | -1.5 | · | · | · | · | i | ·
34 | O=C(OCc1cn([C@@H]2CN(C(=O)c3cccs3)[C@@H](c3ccc(Cl)cc3)C[C@H]2O)nn1)c1ccccc1 | -9% | 1.5 | 0.2 | · | -2 | -17 | -5.7 | i | ·
35 | Cc1ccc(NC(=O)CSCC(=O)Nc2nnc(C3CC3)s2)cc1 | -4% | 2.2 | -8.9 | 0.71 | 2 | 4 | 0.8 | i | 2
36 | CCCC(=O)NCCCc1nc2ccccc2[nH]1 | -3% | -3.2 | -2.3 | 0.68 | 4 | 16 | -1.7 | i | -4
37 | Cc1ccc(S(=O)(=O)n2nc(-n3c(C)ccc3C)c3c(F)cccc32)c2ccccc12 | -5% | -4.0 | 2.9 | 0.67 | 6 | 1 | 2.5 | i | -6
38 | COc1cc(Cl)ccc1OCc1cc(C(=O)N(C)C2CC(C)(C)NC(C)(C)C2)no1 | -2% | -0.6 | 3.5 | 0.64 | -4 | -10 | 2.1 | i | -13
39 | CC(=O)Nc1ccc(S(=O)(=O)NCCc2cc3c(C)ccc(C)c3[nH]c2=O)cc1 | 1% | -2.8 | 4.1 | 0.75 | 5 | 10 | 1.5 | i | -10
40 | Cc1sc2ncn(CC(=O)NC3CCCCC3)c(=O)c2c1C | -5% | 4.2 | -1.3 | 0.69 | · | · | · | i | ·
41 | CC1CN(c2ccccc2)CCN1C(=O)c1cc(COc2c(F)cccc2F)on1 (centres undefined) | · | 4.6 | -1.2 | 0.71 | -21 | -22 | 3.7 | i | -35
42 | CCn1c(C)nnc1SCC(=O)Nc1ccccc1Cl | 1% | 1.2 | -4.1 | 0.65 | 4 | 7 | -1.5 | i | -1
43 | COc1ccccc1-c1nn(-c2ccccc2)cc1C(=O)N1CCc2ccccc2C1 | -10% | -0.9 | 5.5 | 0.66 | -14 | -18 | 0.7 | i | -6
44 | COC(=O)c1ccc(COc2ccc(/C=C/C(=O)c3ccc(OC)c(CSCC(=O)O)c3)cc2OC)cc1 | 10% | -1.0 | 1.9 | 0.71 | 0 | -2 | -1.7 | i | 99*
45 | Cc1cc(C(=O)Nc2cccc3c2O[C@@H](CN(C)Cc2ccc(Oc4ccccc4)cc2)[C@@H](C)CN([C@H](C)CO)C3=O)n(C)n1 | · | · | 3.8 | · | -8 | -17 | 2.1 | i | ·
46 | COc1ccc(NC(=O)C2CCCN(S(=O)(=O)c3ccc4[nH]c(=O)ccc4c3)C2)cc1OC (centres undefined) | -24% | 2.5 | 0.7 | 0.69 | 12 | 9 | 6.3 | i | -14
47 | O=C(NCCC1=CCCCC1)C1CCN(S(=O)(=O)c2ccccc2)CC1 | -3% | 4.0 | 0.9 | 0.69 | 9 | 5 | 1.3 | i | -18
48 | CCCn1c(N)cc(=O)n(CCC)c1=O | 9% | 0.0 | -0.8 | 0.69 | 9 | -2 | 0.5 | i | -3
49 | C[C@@H]1CN([C@H](C)CO)S(=O)(=O)c2ccc(C3=CCCCC3)cc2O[C@@H]1CN(C)Cc1cccnc1 | · | · | 13 | · | -37 | -50 | 26 | i | ·
50 | CCOC(=O)[C@]12CCCC=C1N(Cc1ccco1)C(=O)[C@H](CC(=O)NCc1cccc(C(F)(F)F)c1)C2 | · | 2.3 | -1.4 | · | -27 | -28 | -3.9 | i | ·
51 | CCc1ccccc1NC(=O)Nc1ccc(F)cc1F | -2% | 1.2 | -0.5 | 0.7 | -4 | 4 | 0.7 | i | -9
52 | CCN(CC)C(=O)C1=C(C)N(CCC2=CCCCC2)C(=O)C(CC(=O)NC2CCCC2)C1 (centres undefined) | -6% | -3.5 | 0.1 | · | 9 | 8 | 3.6 | i | ·
53 | COc1cccc(C(=O)Nc2ccc3c(c2)OC[C@@H](C)N(C(=O)C2CCCC2)C[C@@H](C)[C@H](OC)CN(C)C3=O)c1 | · | · | -9.7 | · | -1 | -2 | 7.6 | i | ·
54 | Cc1cc(C(=O)N2CCC2(C)C(=O)Nc2cc(C(C)(C)C)nn2C)nn1C (centres undefined) | · | -1.1 | -0.5 | · | 7 | 8 | 1.0 | i | ·
55 | CCC(=O)NC1(Cc2ccc(O)cc2)CCCCC1 | 11% | -0.8 | -2.3 | 0.68 | -5 | 3 | -0.7 | i | ·
56 | O=C(CSc1ncc(C(=O)O)n1-c1ccc(F)cc1)NCc1ccc2c(c1)OCO2 | 20% | 4.1 | -2.0 | 0.62 | 9 | 9 | 0.4 | i | 0

Other entries follow:
# | Compound | Vif TR-FRET | HNF4A DNA FP | MLL AF4-AF9 inh | Ecoli growth | Ecoli rRNA inh | Ecoli rRNA inh OD600 | Ecoli rRNA inh RFP | FGF22 binding | ALR H2O2 inh
57 | COc1cccc(-c2ccc3n(c2=O)C[C@H]2[C@H](CO)[C@@H](C(=O)N(C)C)[C@@H]3N2C(=O)c2ccccn2)c1 | · | · | 1.7 | · | 1 | 2 | -2.0 | i | ·
58 | O=[N+]([O-])c1cccc(/C=N/N2CCN(Cc3ccccc3)CC2)c1 | -1% | -2.2 | 12 | · | -3 | -3 | -2.6 | i | 1
59 | CS(=O)(=O)c1ccc(Cl)c(NC(=O)C2CCCN(C(=O)c3ccc(Cl)cc3)C2)c1 (centres undefined) | 2% | 2.0 | -9.7 | 0.63 | 0 | -4 | -2.4 | i | -35
60 | CCCc1nn2c(=O)cc(CSCC(=O)Nc3nnc(C(C)C)s3)nc2s1 | · | 0.6 | 0.5 | 0.68 | 2 | 10 | -2.4 | i | -6

These rows are one share of the data; the hit share may differ from the screen's.
